# 2A firefly = lowers the firefly signal of an FMDV 2A StopGo reporter; HEK cells with a luciferase reporter of 2A StopGo recoding; Potency, µM (top dose mostly 57.5 µM), for the others: at the highest dose signal change, negative = less light; 120,000 tested, 0.23% active; AID 1745856; active = well fitted falling curve with a large enough effect; inconclusive = small, poorly fitted or top-dose-only effect; inactive = no such curve, though single readings can be large or run the other way; also: nearly all actives have a fitted effect of over 60% in size; overnight with compound
# 2A Renilla = FMDV 2A StopGo reporter, Renilla signal | HEK cells with a luciferase reporter of 2A StopGo recoding | Potency, µM (doses to about 57.5 µM), inactives show at the highest dose signal change, negative = less light | 120,000 tested, 0.32% active | AID 1745857; active means well fitted falling curve with a large enough effect; inconclusive means small, poorly fitted or top-dose-only effect; inactive means no such curve, though single readings can be large or run the other way; also: nearly all actives have a fitted effect of over 55% in size; overnight with compound
# Starred values were filed as active, the others as inactive; ? = inconclusive; & = joins results of further samples; [ ] = another dose, or the depositor's remark. % is scaled to controls: 0 for no effect and ±100 for the full control effect; potency is read from the fitted curve at half-maximal effect.
# Results follow in this order: 2A firefly | 2A Renilla
- COc1cc(SC)ccc1C(=O)OC(C(=O)c1ccccc1)c1ccccc1 (stereo not given)
→ 25% | 10%
- CC1CCN(C(=O)c2cc(-c3ccc(Br)cc3)on2)CC1
→ 65%[activator] | -11%
- Cc1noc2nc(-c3ccc(F)cc3)cc(C(=O)NCc3ccc(N4CCOCC4)nc3)c12
→ -18% | 3%
- COc1cc(OC)cc(-c2nc3nc(C)c(CCC(=O)NCCC(C)C)c(C)n3n2)c1
→ 0% | -11%
- CC(C)c1ccccc1NC(=O)c1ccc(Cl)cc1F
→ 25% | 13%
- O=C(CCCc1cccs1)NC1CC1
→ 0% | 6%
- COc1ccc(C(=O)NC2(C(F)(F)F)NC(=O)N(c3ccccc3F)C2=O)cc1 (stereo not given)
→ 28% | 22%
- CCOC(=O)C(NC(=O)/C=C/c1ccc(C)cc1Br)C(=O)OCC
→ 0% | 3%
- CCC1CCc2nc3sc(C(=O)Nc4ccc(F)cc4F)c(N)c3cc2C1 (stereo not given)
→ 24% | -4%
- Cc1nc2ccc(Cl)cc2cc1C(=O)NCC(=O)N1CCCCC1
→ -8% | -19%
- Cc1cc(=O)c2cc(C(=O)Nc3cccc(C)c3C)ccc2[nH]1
→ -7% | -12%
- COCC(C)NC(=O)c1cn(C)nc1-c1ccc2c(c1)OCCCO2 (stereo not given)
→ 55%[activator] | -11%
- Cn1cnc2c1c(=O)n(CC(=O)NCc1ccc(F)cc1)c(=O)n2C
→ 1% | -1%
- COc1ccc(NC(=O)CCSc2nc(-c3ccco3)cc(C(F)(F)F)n2)cc1OC
→ 1%&-8% | 13%&-7%
- Cc1nc2nc(NCc3c(F)cccc3Cl)[nH]n2c(=O)c1Cl
→ 265%[activator] | 58%[activator]
- Cc1nccn1CCc1nc2cc(NC(=O)C3CCCCC3)ccc2n1C
→ 99%[activator] | -5%
- CCN(C(=O)C(=O)c1c[nH]c2ccccc12)c1ccc(OC)cc1
→ 21% | 125%[activator]
- C=C(C)Cn1c(SCC(=O)OCc2ccccc2)nc2c1c(=O)n(C)c(=O)n2C
→ -7% | -15%
- CN(C)S(=O)(=O)c1ccc(Cl)c(C(=O)Nc2ccc(Cl)c3cccnc23)c1
→ -11% | -16%
- CCc1cccc(NC(=O)CC(C)C)c1
→ 0% | 70%[activator]
- C#CCN(Cc1ccc(C)cc1)C(=O)CCC(=O)CCC(=O)c1ccc(C)s1
→ 13% | 12%
- Cc1ccccc1C(=O)N1CCC(c2nc3ccccc3s2)CC1
→ ? | ?
- COc1ccc(NC(=O)CN2C(=O)C(C)N=C(c3ccccc3F)c3cc(Cl)ccc32)c(OC)c1 (stereo not given)
→ -18% | -4%
- Cc1ccc(CSCCNC(=O)C2CCN(S(=O)(=O)Cc3ccccc3)CC2)cc1
→ 4% | -9%
- COc1ccc(C2=C(C)C(=O)N(Cc3ccc(C(=O)Nc4cccc(F)c4)cc3)S2(=O)=O)cc1
→ 49%[activator] | 13%
- COc1cccc(CNC(=O)c2ccc3c(c2)N(Cc2ccc(F)cc2Cl)C(=O)c2ccccc2S3)c1
→ -26% | -5%
- COc1ccc(OC)c(NC(=O)c2cnc(N3CCCCC3)c3ccccc23)c1
→ -18% | 2%
- O=C(O)c1ccc(C2CC2)cc1
→ 18% | -3%
- Cn1cc(S(=O)(=O)N2CCCCCC2)cc1C(=O)N1CCN(c2ccc(F)cc2)CC1
→ 6% | 4%
- COc1cc(NC(=O)c2c3c(nc4ccccc24)C(=O)N(C2CCCCC2)C3)cc(OC)c1
→ -6% | 1%

# Following part.
# Results follow in this order: 2A firefly | 2A Renilla
- Cc1cc(Nc2sc(C(=O)c3ccc(F)cc3)c(N)c2C(=O)Nc2ccc(F)cc2)ccc1Cl
→ ? | ?
- COc1ccccc1CN(C)C(=O)NCc1ccccc1S(=O)(=O)N1CCCCC1
→ -12% | 76%[activator]
- O=C(CN1C(=O)COc2ccc(Cl)cc21)Nc1cccc(F)c1
→ -21% | -5%
- Cc1ccc(N(CC(=O)N2CCN(c3ccc(F)cc3)CC2)S(=O)(=O)c2c(C)noc2C)cc1
→ -22% | 1%
- Cn1c(=O)c2c(ncn2CCCNC2=NCCC2)n(C)c1=O
→ -1% | -5%
- Cc1cc(C(=O)CN2C(=O)NC(Cc3c[nH]c4ccccc34)C2=O)c(C)n1C1CC1 (stereo not given)
→ -8% | -6%
- CSc1ccc(C=Nc2ccc(Br)c(Cl)c2)cc1
→ 21% | -3%
- Oc1ccc(-c2nc(-c3ccc(Br)s3)cs2)cc1
→ 184%[activator] | 40%[activator]
- Cc1ccc(CNC(=O)CC2Oc3ccc(Cl)cc3NC2=O)cc1 (stereo not given)
→ -4% | -8%
- COc1cc(NC(=O)C2=CCN(Cc3ccccc3F)CC2)cc(OC)c1OC
→ -7% | -7%
- CN(Cc1ccccc1)C(=O)c1cc2ccccc2oc1=O
→ 114%[activator] | 117%[activator]
- Cc1ccc(S(=O)(=O)Nc2nc3ccccc3nc2Nc2ccc3c(c2)OCO3)c(C)c1
→ -1% | 10%
- O=C(CCN1CCN(c2cnccn2)CC1)Nc1cccc(Cl)c1
→ 6% | -1%
- Cc1cccc(C(=O)N2CCC(c3nc(C4CC4)n[nH]3)CC2)c1C
→ 19% | 34%[activator]
- O=C(Nc1ccc(O)c(-c2nc3ccccc3o2)c1)c1ccco1
→ -2%&-1% | -7%&-7%
- O=C(Cn1c(=O)oc2cc(S(=O)(=O)N3CCCCCC3)ccc21)Nc1cccc(C(F)(F)F)c1
→ -19% | 19%
- CC[n+]1c(NCc2cc(Br)cc(Br)c2[O-])[nH]c2ccccc21
→ 6% | 9%
- Cc1nc2ccccn2c(=O)c1Cc1nnc(SCC(=O)Nc2ccccc2)n1C
→ -2% | -16%
- CCCN(CCC)CCCNC(=O)Cn1ncn2c(cc3sc(CC)cc32)c1=O
→ -7% | -11%
- CC(C)c1ccc(C(=O)O)c(C(C)C)c1
→ -6% | -4%
- CSc1nnc(NC(=O)c2cc(=O)c3cccc(C)c3o2)s1
→ 2% | -5%
- COc1ccc(Cl)cc1NC(=O)CSc1nccn1-c1ccc(Cl)cc1
→ -6% | 2%
- CCOc1ccccc1NC(=O)NCc1noc2ccc(C)cc12
→ 0% | 44%[activator]
- Cc1ccc(CCNC(=O)CCn2nc(-c3ccccc3)ccc2=O)cc1
→ -13% | -8%
- CCc1cccc2c(C(=O)CN3CCC(C(=O)N4CCCC4)CC3)c[nH]c12
→ -1% | 13%
- Cc1cc2ccccc2n1CC(=O)NCC1CCC(C(=O)O)CC1 (stereo not given)
→ -2% | -11%
- O=C(CNC(=O)c1ccccc1)OCc1cc(=O)n2nc(C3CCCCC3)sc2n1
→ -3% | -10%
- O=C(Nc1nnc(-c2cc(Cl)ccc2Cl)o1)c1ccc2c(c1)OCCO2
→ -21% | -12%
- CCOc1cc(C(=O)N(C)CC(=O)Nc2cccc(F)c2)ccc1OCC(=O)N1CCCCC1
→ -11% | -2%
- CC(=O)NCCn1c(SCC(=O)Nc2ccc(C)cc2)nc2ccccc2c1=O
→ -3% | -2%

# Five compounds picked at random from the list so far, as already listed:
# Results follow in this order: 2A firefly | 2A Renilla
- COc1ccc(OC)c(NC(=O)c2cnc(N3CCCCC3)c3ccccc23)c1
→ -18% | 2%
- CCOc1ccccc1NC(=O)NCc1noc2ccc(C)cc12
→ 0% | 44%[activator]
- COc1cc(NC(=O)c2c3c(nc4ccccc24)C(=O)N(C2CCCCC2)C3)cc(OC)c1
→ -6% | 1%
- CCC1CCc2nc3sc(C(=O)Nc4ccc(F)cc4F)c(N)c3cc2C1 (stereo not given)
→ 24% | -4%
- O=C(O)c1ccc(C2CC2)cc1
→ 18% | -3%

# Continued:
CCc1cccc(NS(=O)(=O)c2ccc(-n3cccn3)cc2)c1
  2A firefly = ?
  2A Renilla = 198%[activator]
CN1C(=O)c2ccccc2Sc2ccc(NC(=O)NCc3cccc(Cl)c3)cc21
  2A firefly = ?
  2A Renilla = ?
O=C(c1ccccc1)N1CCC(c2nc3ccccc3o2)CC1
  2A firefly = 17%&-4%
  2A Renilla = 16%&9%
CCc1sc(C(=O)Nc2ccccc2C)cc1C
  2A firefly = 167%[activator]
  2A Renilla = 11%
COc1cc(C2C(C#N)=C(N)N(c3c(F)cccc3F)C3=C2C(=O)CCC3)ccc1O (stereo not given)
  2A firefly = 38%[activator]
  2A Renilla = 64%[activator]
Cc1cc(NC(=O)C(C)(C)Oc2ccc(Cl)cc2)cc(-c2nc3ncccc3o2)c1O
  2A firefly = -4%
  2A Renilla = 4%
Cc1cccc(NC(=O)CSc2nc3c(oc4ccccc43)c(=O)n2-c2ccccc2)c1C
  2A firefly = -24%
  2A Renilla = -16%
Cc1ccc(C2=NN(CC(=O)NC(C)c3ccccc3)C(=O)CC2)cc1 (stereo not given)
  2A firefly = -19%
  2A Renilla = -5%
O=C(NCCc1nc2ccccc2n1Cc1ccccc1)c1ccco1
  2A firefly = 7%
  2A Renilla = 4%
O=C(Nc1cccc(F)c1)Nc1c(NC2CCCC2)c2ccccc2oc1=O
  2A firefly = 13%
  2A Renilla = 12%

CCNC(=O)Cn1c(-c2cccs2)cc2ccccc21
  2A firefly = -9%
  2A Renilla = 7%
CC1CCC(C(C)C)C(OC(=O)CSc2ccccc2C(=O)O)C1 (stereo not given)
  2A firefly = 194%[activator]
  2A Renilla = 10%
O=C(O)CCSCC(=O)c1ccc(Br)cc1
  2A firefly = 6%
  2A Renilla = 11%
CSc1ccc(CCNC(=O)c2noc(C)c2Cn2nc(C)cc2C)cc1
  2A firefly = 11%
  2A Renilla = 11%
COc1cccc(C(=O)Oc2ccc(C3SCCS3)cc2OC)c1
  2A firefly = 18%
  2A Renilla = 0%
CCCCC(=O)Nc1nnc(S(=O)(=O)N(C)Cc2ccc(Cl)cc2)s1
  2A firefly = -16%
  2A Renilla = -6%
Cc1ccc2cccc(NC(=O)COc3ccccc3)c2n1
  2A firefly = -11%
  2A Renilla = -28%
CC(=O)N(Cc1cccnc1)c1nc2c(C)cccc2s1
  2A firefly = -8%
  2A Renilla = 11%
O=C(Nc1ccc(F)c(F)c1)C(c1ccccc1)N1Cc2ccccc2C1=O (stereo not given)
  2A firefly = -11%
  2A Renilla = 209%[activator]
CCc1ccc(C2=C(C)C(=NCC(=O)Nc3ccc(C)c(F)c3)NS2(=O)=O)cc1
  2A firefly = -2%
  2A Renilla = 24%

# Single entries from above.
# Result for Cc1ccc2cccc(NC(=O)COc3ccccc3)c2n1 in 2A Renilla: -28%
# Result for CC[n+]1c(NCc2cc(Br)cc(Br)c2[O-])[nH]c2ccccc21 in 2A Renilla: 9%

# One compound at a time (already shown). Order of screens: 2A firefly	2A Renilla
# Record of O=C(Nc1ccc(F)c(F)c1)C(c1ccccc1)N1Cc2ccccc2C1=O (stereo not given) → -11%	209%[activator]
# Record of CCCCC(=O)Nc1nnc(S(=O)(=O)N(C)Cc2ccc(Cl)cc2)s1 → -16%	-6%
# Record of CCNC(=O)Cn1c(-c2cccs2)cc2ccccc21 → -9%	7%
# Record of CCc1ccc(C2=C(C)C(=NCC(=O)Nc3ccc(C)c(F)c3)NS2(=O)=O)cc1 → -2%	24%

# Following part.
CCOC(=O)c1c(-c2ccccc2)csc1NC(=O)c1cc(=O)c2cc(Cl)ccc2o1
  2A firefly = -3%
  2A Renilla = -1%
CCN(CC)c1ccc(NC(=O)c2sc3ccccc3c2Cl)cc1
  2A firefly = 44%[activator]
  2A Renilla = 7%
Cc1cc(C)c(S(=O)(=O)N2CCOC23CCN(C(=O)CC(C)C)CC3)c(C)c1
  2A firefly = -16%
  2A Renilla = -4%
O=C(Cn1nc(-c2ccc(Cl)cc2)c2ccccc2c1=O)N1CCCC1
  2A firefly = 2%
  2A Renilla = -11%
O=C1CC(c2ccc(F)cc2)c2c(n3c(nc4ccccc43)[nH]c2=O)N1 (stereo not given)
  2A firefly = -24%
  2A Renilla = 0%
CCOC(=O)c1c(-c2ccccc2)oc2ccc(NS(=O)(=O)c3ccc(C)cc3C)cc12
  2A firefly = -2%
  2A Renilla = 312%[activator]
Cc1cccc(Nc2cc(C)nc(-n3nc(C)cc3C)n2)c1
  2A firefly = ?
  2A Renilla = 3%
COc1cccc(Nc2ccc3cc(S(=O)(=O)N4CCC(C)CC4)ccc3n2)c1
  2A firefly = ?
  2A Renilla = 48%[activator]
CCOc1ccc(S(=O)(=O)N(C)CC(=O)NCC2CCCO2)cc1Cl (stereo not given)
  2A firefly = 4%
  2A Renilla = 2%
CNC(=O)NC(=O)CSc1ccc2ccccc2n1
  2A firefly = 44%[activator]
  2A Renilla = 1%
C/C(=N\NC(=O)c1ccccc1)c1ccc(-c2ccccc2)cc1
  2A firefly = 70%[activator]
  2A Renilla = 0%

# In another format: entries from further up
structure | 2A firefly | 2A Renilla
O=C1CC(c2ccc(F)cc2)c2c(n3c(nc4ccccc43)[nH]c2=O)N1 (stereo not given) | -24% | 0%
CCOC(=O)c1c(-c2ccccc2)oc2ccc(NS(=O)(=O)c3ccc(C)cc3C)cc12 | -2% | 312%[activator]
Cc1cccc(Nc2cc(C)nc(-n3nc(C)cc3C)n2)c1 | ? | 3%
COc1cccc(Nc2ccc3cc(S(=O)(=O)N4CCC(C)CC4)ccc3n2)c1 | ? | 48%[activator]
CCOc1ccc(S(=O)(=O)N(C)CC(=O)NCC2CCCO2)cc1Cl (stereo not given) | 4% | 2%
CNC(=O)NC(=O)CSc1ccc2ccccc2n1 | 44%[activator] | 1%
C/C(=N\NC(=O)c1ccccc1)c1ccc(-c2ccccc2)cc1 | 70%[activator] | 0%

# These rows are one share of the data (hit frequency here may not be typical).
